Bead autofluor – flagged as autofluorescent in microsphere protease counterscreen | fluorescence intensity (concentration not given with the values) | 360,000 tested, 3.1% active | compound autofluorescence counterscreen, microsphere flow cytometry; hits give high values;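 active = at least 3 SD above the mean of all compounds, about 16000 in these data; inconclusive = too few beads counted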;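 also: 100 nL of 1 mM stock went into each well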
Sa ugtP lethal – compounds lethal to S. aureus RN4220 ugtP deletion mutant; OD600 growth, 16 h; some inactives read as strong as hits; growth inhibition, % (no concentration beside the values); 330,000 tested, 0.54% active; AID 1259309;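 active = z-score under -3 and OD600 up to 0.15 on both plates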;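 also: plate controls were untreated wells for no effect and antibiotic for full effect; wells of about 80 µL received 100 nL stock; the first replicate is given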
RN4220 kill – S. aureus RN4220 growth inhibition; OD600, 16 h; inhibition, % (no concentration beside the values); 330,000 tested, 0.33% active; AID 1259311;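 active = z-score of -3 or lower and OD600 up to 0.18 on both plates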;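 also: plate controls were untreated cells for no effect and reference antibiotic for full effect; stock transfer was 100 nL into about 80 µL; one replicate is shown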
PrP 5UTR inh – inhibition of PrP 5' UTR reporter expression; cell-based PrP 5' UTR mRNA reporter, plate reader; inhibition, % (no concentration beside the values); 340,000 tested, 0.35% active;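 active = every replicate at 50% or more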;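 also: 0 = median of the neutral control wells; tested in H4 reporter cells; numbers are from one replicate; inactives centre near -14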
Mtb hypoxia inh – inhibitors of hypoxia-regulated fluorescent reporter in Mycobacterium tuberculosis; fluorescence inhibition, % (test concentration not listed); M. tuberculosis hypoxia-regulated fluorescent reporter, fluorescence; AID 1159583; 300,000 tested, 0.1% active;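 active = 35 to 45% if threefold the growth effect, above 45% if 1.5-fold the growth effect; inactive = the rest, general growth blockers included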;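 also: wells of about 50 µL received 100 nL stock; 0% = vehicle wells and 100% = reference inhibitor wells; whole bacteria with a GFP reporter of the hypoxia response; strong numbers were not always called active; many hits fall short of the cut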
BJeLR lethal – BJeLR cell viability loss | inhibition, % (concentration not given with the values) | BJeLR (HRASV12) viability, CellTiter-Glo ATP luminescence, 48 h; reference of the scale not given here | 300,000 tested, 0.17% active;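 active = replicate mean above 50%; inconclusive = above 50% but judged a plate artefact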;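 also: 50 nL library stock added to about 25 µL; numbers are from one replicate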
Mtb hypoxia inh growth – also measured in Mtb hypoxia inh; calls as there; growth inhibition, %; measured here: M. tuberculosis growth (absorbance);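 0% = vehicle and 100% = reference antibiotic; read after six days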
The depositor's hits bear a star; ? = inconclusive; / = no result given.

Order of values: RN4220 kill	Sa ugtP lethal	Mtb hypoxia inh	Mtb hypoxia inh growth	BJeLR lethal	Bead autofluor	PrP 5UTR inh
- COc1ccc(NC2=NCC(=O)N2c2ccccc2)c(OC)c1
    0.7	0	/	/	-9	4797	1
- CC(C)n1c(/N=C/c2c[nH]c3ccccc23)nc2ccccc21
    /	/	/	/	7	12506	-22
- O=C(Cn1c2[n+](c3ccc(C(F)(F)F)cc31)CCCCC2)Nc1ccccc1
    -1.2	-5	6	10	9	2958	-16
- CCCCOP(=O)(c1ccc(N(C)C)cc1)C(O)c1c(Cl)cccc1Cl (stereo not drawn)
    6.8	7	16	6	0	3990	-15
- O=C(c1ccco1)N1N=C(c2cccs2)CC1c1cc([N+](=O)[O-])ccc1O (stereo not drawn)
    3.9	-16	-4	7	-1	6036	-14
- Cc1ccc(NC(=O)CSc2nncs2)cc1Cl
    3.5	7	5	-6	/	3959	-17
- COc1ccc(/C=C/C(=O)Oc2cccc(C=NNC(=O)c3cccc(F)c3)c2)cc1
    1.3	10	-1	6	/	/	/
- O=C(COc1ccc2ccc(=O)oc2c1)N1CCc2ccccc21
    -4.9	-5	1	6	-7	4310	-19
- CC(=O)c1ccc(S(=O)(=O)Nc2cccc(S(=O)(=O)NC3=NCCC3)c2)cc1
    2.7	-5	-7	9	-6	2091	12
- Cc1cc(NC(=O)CSc2nnc(-c3ccc([N+](=O)[O-])cc3)o2)no1
    -1.1	3	4	-6	-4	5085	-14
- CC(C)CN(C(=O)COC(=O)c1cccc2ccccc12)c1c(N)n(Cc2ccccc2)c(=O)[nH]c1=O
    0.2	1	-4	-2	1	/	-9
- CCN(CC(=O)Nc1c(F)cccc1F)C(=O)CCNS(=O)(=O)c1ccc(C)c(C)c1
    -0.4	3	4	0	7	4274	-6
- CCc1ccccc1N(CC(=O)NCc1ccc(OC)cc1)C(=O)CCC(=O)Nc1ccccn1
    -0.5	9	14	11	3	5288	-6
- COc1ccccc1CN=Cc1[nH]c2ccc(Br)c(Cl)c2c1O
    -3.9	2	-2	11	-12	13921	-12
- O=C(Nc1ccccc1)OCCN1CCN(Cc2ccccc2)CCC1=O
    6.1	6	19	10	-5	3565	-10

11 entries from above, ordered by molar mass, ascending:
Order of values: RN4220 kill	Sa ugtP lethal	Mtb hypoxia inh	Mtb hypoxia inh growth	BJeLR lethal	Bead autofluor	PrP 5UTR inh
- Cc1ccc(NC(=O)CSc2nncs2)cc1Cl
    3.5	7	5	-6	/	3959	-17
- CC(C)n1c(/N=C/c2c[nH]c3ccccc23)nc2ccccc21
    /	/	/	/	7	12506	-22
- COc1ccc(NC2=NCC(=O)N2c2ccccc2)c(OC)c1
    0.7	0	/	/	-9	4797	1
- O=C(Nc1ccccc1)OCCN1CCN(Cc2ccccc2)CCC1=O
    6.1	6	19	10	-5	3565	-10
- O=C(c1ccco1)N1N=C(c2cccs2)CC1c1cc([N+](=O)[O-])ccc1O (stereo not drawn)
    3.9	-16	-4	7	-1	6036	-14
- COc1ccccc1CN=Cc1[nH]c2ccc(Br)c(Cl)c2c1O
    -3.9	2	-2	11	-12	13921	-12
- CCCCOP(=O)(c1ccc(N(C)C)cc1)C(O)c1c(Cl)cccc1Cl (stereo not drawn)
    6.8	7	16	6	0	3990	-15
- COc1ccc(/C=C/C(=O)Oc2cccc(C=NNC(=O)c3cccc(F)c3)c2)cc1
    1.3	10	-1	6	/	/	/
- CC(=O)c1ccc(S(=O)(=O)Nc2cccc(S(=O)(=O)NC3=NCCC3)c2)cc1
    2.7	-5	-7	9	-6	2091	12
- CCN(CC(=O)Nc1c(F)cccc1F)C(=O)CCNS(=O)(=O)c1ccc(C)c(C)c1
    -0.4	3	4	0	7	4274	-6
- CC(C)CN(C(=O)COC(=O)c1cccc2ccccc12)c1c(N)n(Cc2ccccc2)c(=O)[nH]c1=O
    0.2	1	-4	-2	1	/	-9

The listing continues:
Order of values: RN4220 kill	Sa ugtP lethal	Mtb hypoxia inh	Mtb hypoxia inh growth	BJeLR lethal	Bead autofluor	PrP 5UTR inh
- Cc1cccc(OCc2nnc(SCC(=O)N(C)C3CCCCC3)o2)c1
    7.4	11	9	-2	/	6296	-20
- COC1=CCC2([N+](=O)[O-])CN(CCO)CC1([N+](=O)[O-])C2 (stereo not drawn)
    3.3	1	0	8	-9	3037	-5
- Cc1cc(NC(=O)c2cc(C3CC3)on2)no1
    -10.0	-1	9	11	0	5244	-37
- O=C(O)/C=C/C(=O)N1CCN(c2ccccc2F)CC1
    -2.4	1	-4	0	-6	2624	-20
- CCc1cc2c(=O)[nH]c(Cc3ccc(Cl)cc3)nc2s1
    0.9	-3	/	/	-11	2934	-27
- COc1ccc(NS(=O)(=O)c2ccc(OC)c(N(C)S(=O)(=O)c3ccc(Cl)cc3)c2)cc1
    2.5	-16	9	12	-5	8934	-29
- CC(C)(C)c1nnc(NN=Cc2ccc(O)cc2)n(N)c1=O
    1.9	-9	-1	5	/	/	/
- Cn1c(N)c(C(=O)COC(=O)c2nc(Cl)ccc2Cl)c(=O)n(C)c1=O
    2.9	2	5	1	-1	3797	-6
- CC(C)(C)c1cc[n+](-c2[nH]c(=O)sc2C=NNC([S-])=Nc2ccccc2)cc1
    2.2	2	9	2	/	/	/
- CCCC1CCC(c2nc(-c3cccnc3)no2)CC1 (stereo not drawn)
    8.2	78	7	7	-2	19821*	-32
- CC1Cc2ccccc2N1C(=O)COC(=O)C1(c2ccccc2F)CCCC1 (stereo not drawn)
    -6.3	14	0	2	0	2470	4
- COc1ccc(/C=N/NC(=O)c2ccc(O)cc2O)cc1CSc1ccccn1
    /	/	/	/	2	1907	-8
- CCN(C(=O)COC(=O)[C@H](C)N=C1NS(=O)(=O)c2ccccc21)C1CCS(=O)(=O)C1 (stereo partly drawn)
    0.9	1	6	8	/	?	-7
- CN1CCc2c(OCC(=O)N3N=C(c4cccs4)CC3c3ccc(F)cc3)cccc2C1=O (stereo not drawn)
    0.6	-12	/	/	6	2507	-2
- Cc1ccc(-n2ncc3c(=O)n(CC(=O)N(C(C)C)C(C)C)cnc32)cc1
    2.9	4	8	6	0	3909	-32

Next section
Order of values: RN4220 kill	Sa ugtP lethal	Mtb hypoxia inh	Mtb hypoxia inh growth	BJeLR lethal	Bead autofluor	PrP 5UTR inh
- CSc1ccc(C(=O)NC2CCSc3ccccc32)cc1 (stereo not drawn)
    4.5	11	25	11	0	3801	-5
- CCOc1cc(N2CCOCC2)c(OCC)cc1NC(=O)c1cc(-c2ccco2)nc2ccccc12
    4.3	-2	-4	6	13	11503	1
- O=C(COc1ccc(C(=O)Nc2ccc(Cl)cc2)cc1)NCc1ccccc1
    9.1	9	3	0	1	10778	-23
- CC(=O)NC(Cc1ccccc1C)C(=O)NC1CCN(C(=O)NCc2ccccc2)CC1 (stereo not drawn)
    0.3	-1	-20	-5	-6	5851	4
- CC(=O)CSc1nc2ccc(Nc3nc(N4CCOCC4)nc(N4CCOCC4)n3)cc2s1
    -0.2	-17	-1	9	3	16232*	-22
- CCOC(=O)CCN
    2.3	-2	16	2	-5	3460	-12
- O=C(NCCn1ccc2ccccc21)c1cccc([N+](=O)[O-])c1
    1.5	-3	-1	19	1	5660	-29
- CCCc1cc(=O)oc2c(C)c(OCC(=O)N3CCC(C(N)=O)CC3)ccc12
    1.1	6	/	/	-7	5775	-8
- CCCCN1C(=O)C(C2c3ccccc3C(=O)N2Cc2ccccc2)C(=O)NC1=S (stereo not drawn)
    -1.8	1	2	6	0	21741*	-25
- COc1cc(CNc2ccc3c(c2)CCC3)cc(OC)c1O
    3.8	5	18	16	-5	15311	-4
- COc1cccc(Nc2nc(-c3cccnc3)cs2)c1
    -0.8	3	3	16	-21	3494	-86
- CCNC(=O)NC(=O)c1csc([N+](=O)[O-])c1
    6.3	15	0	0	-3	5595	-32
- Cc1ccc(C(=O)c2cc(Br)ccc2N)cc1
    3.1	10	1	-2	8	3983	-79
- COc1ccc(CCN2CCCC(CN(C)C(=O)c3ccoc3C)C2)cc1 (stereo not drawn)
    0.2	3	1	2	-14	5349	-12
- C=CCOc1ccc2ccccc2c1CNCCCN1CCOCC1
    4.8	1	6	5	6	10547	-31

Further entries
Order of values: RN4220 kill	Sa ugtP lethal	Mtb hypoxia inh	Mtb hypoxia inh growth	BJeLR lethal	Bead autofluor	PrP 5UTR inh
- CC1(C(=O)N2CCC(CC3CC(c4cccc(Br)c4)=NO3)(C(=O)NCC3CCCCC3)CC2)CC1 (stereo not drawn)
    1.8	6	1	3	-4	3744	-9
- CC(=O)N1N=C(c2cccc(NS(=O)(=O)c3ccc(C)cc3)c2)CC1c1ccco1 (stereo not drawn)
    -1.3	15	0	-7	-2	4475	-14
- O=c1oc2cc(OCc3ccc(F)cc3F)ccc2cc1-c1ccc2ccccc2n1
    0.3	-1	0	11	0	/	/
- CCN(c1ccccc1)S(=O)(=O)c1cccc(C(=O)N2CCN(S(=O)(=O)c3ccccc3)CC2)c1
    3.9	2	1	3	6	5845	-13
- O=C(Cn1c(NCCO)nc2ccccc21)NCCc1ccccc1
    -3.3	-1	/	/	9	4401	-18
- Nc1ccccc1C(O)(Cc1ccccc1)c1ccccc1 (stereo not drawn)
    2.1	17	8	4	7	3692	-13
- CCOC(=O)c1ccc(NC(=O)C2(c3ccc(OC)cc3)CCOCC2)cc1
    6.2	0	5	1	0	3374	-11
- CC(=Nc1ccccc1N)c1c(O)n(C)c(=O)[nH]c1=O
    3.0	6	5	0	-8	3424	-19
- O=C(Nc1cccc(N=Cc2cc(Br)cc(Br)c2O)c1)c1ccco1
    -10	10	8	6	21	8772	-19
- O=C(CN1CCN(S(=O)(=O)c2ccccc2)CC1)N1CCc2ccccc21
    6.4	10	6	4	/	9296	-20
- CCC1(c2ccc(F)cc2)NC(=O)N(CC(=O)N2CCN(S(=O)(=O)c3ccc(C)cc3)CC2)C1=O (stereo not drawn)
    0.7	1	9	-3	-3	?	-7
- CS(=O)(=O)N(CC(=O)NCc1ccccc1Cl)Cc1ccccc1
    0.1	3	/	/	-2	2347	-14
- c1ccc2c(NC3CCCC3)nnc(NC3CCCC3)c2c1
    -0.3	-8	/	/	8	3938	-4
- CCOC(=O)c1nnn(CC(=O)N2N=C(c3ccc(Cl)cc3)CC2c2ccc(OC)cc2)c1C(=O)OCC (stereo not drawn)
    -3.8	-10	-8	4	-11	3878	-22
- O=C(CCCc1nc2ccccc2s1)Nc1nccs1
    5.5	-4	8	5	-9	10238	-22

Results in RN4220 kill and Mtb hypoxia inh, for some of the entries so far:
Compound,RN4220 kill,Mtb hypoxia inh
Cc1ccc(NC(=O)CSc2nncs2)cc1Cl,3.5,5
COc1ccc(/C=C/C(=O)Oc2cccc(C=NNC(=O)c3cccc(F)c3)c2)cc1,1.3,-1

Going on with the list.
Order of values: RN4220 kill	Sa ugtP lethal	Mtb hypoxia inh	Mtb hypoxia inh growth	BJeLR lethal	Bead autofluor	PrP 5UTR inh
- O=C1C(Cl)=C(Nc2cccc(O)c2)C(=O)N1Cc1ccccc1
    -2.1	-6	-1	0	-6	2249	-20
- Cn1c(N)c(C(=O)COC(=O)c2ccc(F)cc2Cl)c(=O)n(C)c1=O
    8.7	-2	14	7	/	3957	-35
- COc1ccc(N2CCOCC2)c(NC(=O)c2ccc3c(c2)OCO3)c1
    -1.4	5	6	10	-3	3702	-16
- O=C(O)c1ccc(-c2nc(-c3ccccc3Cl)cs2)cc1
    5.0	-22	0	-1	-1	2791	-49
- COc1ccccc1-c1cnn2c(NCCc3ccccc3)cc(C)nc12
    3.2	11	1	11	10	3689	-27
- O=C(COc1ccc(Cl)cc1)N1CCCCCCC1
    2.8	1	/	/	5	3655	-34
- CC(=O)N1Cc2[nH]c3ccccc3c2CC1C(=O)O (stereo not drawn)
    2.6	1	6	-4	-5	3169	-7
- O=C(NCC1CCCO1)c1cccc(C(=O)NCC2CCCO2)c1 (stereo not drawn)
    0.2	0	6	-7	-10	3758	-18
- CC(C)CNC(=O)CSc1nc2nn(-c3ccccc3)c(=O)c-2c2n1CCCCC2
    -1.7	0	-3	11	17	4942	-1
- Cc1cc2c(c(SCC(=O)NCCc3ccccc3)n1)C(=O)OC2
    4.0	0	5	7	-6	4443	-22
- C=CCC1NS(=O)(=O)OC(COC)C1C (stereo not drawn)
    0.5	2	2	6	7	2927	4
- COc1cc(C(CC(=O)Nc2ccc(Cl)cn2)N2Cc3ccccc3C2=O)cc(OC)c1OC (stereo not drawn)
    9.8	3	-14	11	-1	4029	-9
- O=C(O)c1ccccc1C(=O)c1ccc2c(c1)CCC2
    7.7	8	-3	-10	-4	3033	-14
- CC(=O)OCC(=O)NCC(=O)c1c[nH]c2ccccc12
    6.3	-3	-8	-4	0	3187	3

From PubChem
